Ecoli rRNA inh: reduced GFP signal of wild-type E. coli, primary screen, bacterial rRNA inhibitor project, GFP/RFP fluorescence, OD600, single point | E. coli WT GFP vs humanized-ribosome RFP mutants, 24 h; active compounds read low; DMSO median 0, no signal -100 | GFP signal change (wild-type ribosome), % (test concentration not listed) | 1.6% of 350,000 active | AID 720706, 2013;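 active = significant combined selectivity score with lowered wild-type GFP, culture density cut under 30%, mutant RFP and density less affected; inactive = any of these conditions unmet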; also: one replicate is shown; some compounds called inactive have numbers as strong as hits
FGF22 binding: binders of human FGF22 protein, primary screen, FGF22 synaptogenesis inhibitor project, biophysical, thermal shift, single point; recombinant FGF22 thermal shift, SYPRO orange fluorescence; percent of sucrose octasulfate shift, DMSO zero; AID 651658, 2012; calls only at 9.99 µM; Fibroblast growth factor 22 (Homo sapiens), Q9HCT0; 1.5% of 340,000 active;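 active = melting point raised past a set limit in the mean and every replicate; three in four hits are not shown here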
Target sequence (Q9HCT0 whole entry, looked up): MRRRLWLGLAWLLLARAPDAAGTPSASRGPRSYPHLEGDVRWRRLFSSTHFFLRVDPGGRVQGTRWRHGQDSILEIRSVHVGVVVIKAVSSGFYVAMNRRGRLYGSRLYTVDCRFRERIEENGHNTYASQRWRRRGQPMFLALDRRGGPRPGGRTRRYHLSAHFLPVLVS
MLL AF4-AF9 inh: inhibitors of AF4 peptide binding to AF9, primary screen, biochemical, AlphaScreen, biotin-AF4 peptide, FLAG-AF9, single point; AID 651704, 2012; inhibition, % at 10 µM; 0.47% of 350,000 active; Protein AF-9 (Homo sapiens), P42568;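 active = every replicate reaching a set inhibition limit, whatever the replicate mean, cut at about 25% in these data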;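 also: 0% = plate neutral control median and 100% = total signal loss; the record names both 10 and 1 µM as test concentration; the first replicate is given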
Target sequence (P42568 whole entry, looked up): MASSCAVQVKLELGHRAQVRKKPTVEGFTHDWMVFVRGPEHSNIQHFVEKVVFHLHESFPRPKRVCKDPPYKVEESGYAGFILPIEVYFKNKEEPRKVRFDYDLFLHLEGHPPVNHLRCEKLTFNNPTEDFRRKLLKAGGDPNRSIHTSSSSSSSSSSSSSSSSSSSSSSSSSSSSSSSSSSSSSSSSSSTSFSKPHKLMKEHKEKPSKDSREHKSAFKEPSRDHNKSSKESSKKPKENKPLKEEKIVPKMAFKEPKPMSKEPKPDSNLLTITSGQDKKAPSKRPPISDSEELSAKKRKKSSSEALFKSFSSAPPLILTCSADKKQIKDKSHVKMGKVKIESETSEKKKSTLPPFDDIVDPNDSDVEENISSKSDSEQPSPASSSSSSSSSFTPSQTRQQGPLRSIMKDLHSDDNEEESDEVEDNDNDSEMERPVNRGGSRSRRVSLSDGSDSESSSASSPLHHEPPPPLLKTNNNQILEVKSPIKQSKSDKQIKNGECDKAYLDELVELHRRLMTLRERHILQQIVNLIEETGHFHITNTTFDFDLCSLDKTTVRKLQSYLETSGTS
Ecoli rRNA inh OD600: recorded beside Ecoli rRNA inh, whose call it bears; OD600 change, %; measured here: OD600 growth;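 optical density of the mix in the first replicate; 0 = DMSO median and -100 = no signal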
Ecoli rRNA inh RFP: further read-out of Ecoli rRNA inh, marked with its call; RFP signal change, %; measured here: RFP humanized mutant strains;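 first replicate; 0 = DMSO median and -100 = no signal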
* hit, by the source's call; i = inactive; · = not tested or not shown; + = active, no number; & = joins results of further samples. Only part of the results is shown. The share of hits here may be higher or lower than overall.

SMILES	Ecoli rRNA inh	Ecoli rRNA inh OD600	Ecoli rRNA inh RFP	FGF22 binding	MLL AF4-AF9 inh
COCC(=O)Nc1ccc2c(c1)[C@H]1C[C@@H](CC(=O)NCc3ccc(Cl)cc3)O[C@@H](CO)[C@H]1O2	0	-4	-4.5	i	·
O=C(C[C@@H]1CC[C@@H]2[C@H](COC[C@@H](O)CN2CCC(F)(F)F)O1)NCC1CCCCC1	-1	-7	-5.3	i	·
Cc1ccccc1S(=O)(=O)N1CC[C@@H]2[C@H]1c1cc(-c3cccc(C#N)c3)ccc1N[C@@H]2CO	-8	-6	2.1	i	·
CN1c2ccc(-c3ccc(C#N)cc3)cc2[C@@H]2[C@@H](CCN2C(=O)CN2CCOCC2)[C@@H]1CO	4	7	1.3	i	·
C[C@@H]1CN([C@@H](C)CO)C(=O)c2cc(NS(=O)(=O)c3ccc(F)cc3)ccc2O[C@@H](C)CCCCO[C@@H]1CN(C)C(=O)Cc1ccccc1	0	1	-3.7	i	·
O=C(c1ccccc1)N1CCC2CCN(CCc3ccccc3)CC21 (stereo unspecified)	7	2	2.1	i	·
O=C(C[C@@H]1CC[C@H]2[C@@H](COC[C@H](O)CN2C(=O)Nc2ccc(Cl)cc2)O1)NCC1CCCCC1	i	·	·	i	·
COc1ccc(CN(C)C[C@H]2OCCCC[C@@H](C)Oc3ccc(NC(=O)Cc4ccccc4)cc3C(=O)N([C@H](C)CO)C[C@H]2C)cc1	1	-4	1.2	i	·
O=C(Nc1ccc(Nc2cccnc2)cc1)c1c[nH]c2ccccc12	-12	-10	13	i	·
CCCCCn1cc(CCC(=O)Nc2ccc(Oc3cccnc3)cc2)c2ccccc21	-1	-5	0.8	i	·
CN1C(=O)c2cc(NC(=O)c3cccc(Cl)c3)ccc2OC[C@H]2O[C@H](CC(=O)NC3CCCCC3)CC[C@H]21	0	-1	-1.5	i	·
C[C@@H]1CCCCO[C@@H](CN(C)C(=O)NC2CCCCC2)[C@H](C)CN([C@H](C)CO)C(=O)c2cc(N(C)C)ccc2O1	1	0	-1.9	i	·
COC(=O)C[C@@H]1CC[C@H]2[C@@H](COc3ccc(NC(=O)Nc4ccc(Cl)cc4)cc3C(=O)N2C)O1	-6	-4	6.5	i	·
CCCN1CCCCC(NC(=O)c2ccc(F)c(F)c2)C1=O (stereo unspecified)	9	16	0.8	i	·
COc1cccc(CN(C)[C@H]2C[C@H]3c4[nH]c5ccccc5c4CCN3C[C@H]2[C@H](C)O)c1OC	31	20	2.4	i	·
Cc1ccc(S(=O)(=O)Nc2ccc3c(c2)C(=O)N([C@H](C)CO)C[C@@H](C)[C@H](CN(C)S(=O)(=O)c2ccc(F)cc2)OCCCC[C@H](C)O3)cc1	1	6	-0.2	i	·
O=C(C1CC1)N1CC[C@@H]2[C@H](CO)Nc3ccc(C#Cc4ccccc4F)cc3[C@@H]21	-7	-2	5.1	i	·
CCCN1[C@@H]2Cn3c(ccc(-c4ccc(F)cc4)c3=O)[C@H]1[C@@H](C(=O)NCCc1cn(C)cn1)[C@@H]2CO	-2	6	-2.7	i	·
Cc1ccc(S(=O)(=O)Nc2ccc3c(c2)CC(=O)N([C@H](C)CO)C[C@H](C)[C@@H](CN(C)S(=O)(=O)c2ccccc2)O3)cc1	-5	-16	1.9	i	·
COCc1[nH]nc2c1C(c1cccc(C(F)(F)F)c1)N(c1ccc(OC)cc1)C2=O (stereo unspecified)	13	23	-1.2	i	·
CCCC(=O)Nc1ccc2c(c1)C(=O)N(C)[C@@H]1CC[C@H](CC(=O)NCc3ccccc3F)O[C@H]1CO2	4	0	0.8	i	·
COC(=O)C1=C(C)N(Cc2cccc(C(F)(F)F)c2)C(=NCc2ccccc2)NC1c1ccccc1C(F)(F)F (stereo unspecified)	-41	-75	-16	i	·
COCC(=O)Nc1ccc2c(c1)[C@H]1C[C@@H](CC(=O)N3CCN(C)CC3)O[C@H](CO)[C@H]1O2	3	6	-0.6	i	·
Cc1noc(C)c1NC(=O)Nc1ccc2c(c1)C(=O)N([C@@H](C)CO)C[C@@H](C)[C@@H](CN(C)Cc1ccc3c(c1)OCO3)OCCCC[C@H](C)O2	-3	3	1.5	i	·
CN(C)CC(=O)Nc1ccc2c(c1)[C@@H]1C[C@H](CC(=O)N3CCOCC3)O[C@@H](CO)[C@@H]1O2	4	7	-1.7	i	·

Three entries from above, sorted by the number in Ecoli rRNA inh RFP, largest number first.
| compound | Ecoli rRNA inh RFP |
| --- | --- |
| CN1c2ccc(-c3ccc(C#N)cc3)cc2[C@@H]2[C@@H](CCN2C(=O)CN2CCOCC2)[C@@H]1CO | 1.3 |
| CCCC(=O)Nc1ccc2c(c1)C(=O)N(C)[C@@H]1CC[C@H](CC(=O)NCc3ccccc3F)O[C@H]1CO2 | 0.8 |
| Cc1ccc(S(=O)(=O)Nc2ccc3c(c2)C(=O)N([C@H](C)CO)C[C@@H](C)[C@H](CN(C)S(=O)(=O)c2ccc(F)cc2)OCCCC[C@H](C)O3)cc1 | -0.2 |

Additional structures follow:
SMILES	Ecoli rRNA inh	Ecoli rRNA inh OD600	Ecoli rRNA inh RFP	FGF22 binding	MLL AF4-AF9 inh
CCOC(=O)CN1C(=O)[C@]2(OCCC=C[C@H]2C)c2ccccc21	34	26	1.6	i	·
O=S(=O)(c1ccc(F)cc1)N1CC[C@@H]2[C@H]1c1cc(-c3ccc(F)cc3)ccc1N[C@@H]2CO	-10	-46	32	i	·
CC(=O)N1C[C@@H](CO)[C@@H]2C[C@H]1c1ccccc1N2C	16	4	3.1	i	·
C[C@@H]1CN([C@H](C)CO)S(=O)(=O)c2ccc(C#CC(C)(C)O)cc2O[C@H]1CN(C)C(=O)C1CCCCC1	-4	-3	-0.8	i	·
Cc1cc(N/C(=C\C(=O)c2ccccc2)c2ccccc2)ccc1Br	-9	-6	1.6	i	·
Cc1noc(C)c1NC(=O)N(C)C[C@@H]1OCCCC[C@@H](C)Oc2ccc(NC(=O)Nc3ccccc3)cc2C(=O)N([C@@H](C)CO)C[C@@H]1C	6	5	-1.4	i	·
OC[C@@H]1Nc2ccc(-c3ccc(F)cc3)cc2[C@H]2[C@@H]1CCN2Cc1ccc(F)cc1	-57	-77	-20	i	·
O=C(N[C@H](Cc1ccccc1)C(=O)N(CCC1=CCCCC1)CC1CC1)[C@H]1O[C@@H](n2ccc(=O)[nH]c2=O)[C@H](O)[C@@H]1O	8	7	-3.7	i	·
COc1ccccc1-c1ccc([C@@H]2[C@@H](CO)N3CCCCN(C(=O)NC4CCCC4)C[C@@H]23)cc1	-35	-61	4.0	i	·
OC[C@@H]1[C@@H](c2ccc(-c3cccnc3)cc2)[C@H]2CN(Cc3ccccn3)CCCCN12	12	12	-4.1	+	·
C[C@@H]1CN([C@H](C)CO)C(=O)c2c(c3ccccc3n2C)-c2ccccc2CO[C@@H]1CN(C)Cc1ccc(C(F)(F)F)cc1	2	2	-3.7	+	·
Cc1ccc(S(=O)(=O)N(C)C[C@H]2OCCCC[C@@H](C)Oc3ccc(NC(=O)C4CCCCC4)cc3C(=O)N([C@H](C)CO)C[C@@H]2C)cc1	0	-4	-0.7	i	·
C[C@@H]1CN([C@H](C)CO)C(=O)c2cc(NC(=O)Nc3ccc(F)cc3)ccc2O[C@@H](C)CCCCO[C@@H]1CN(C)Cc1ccncc1	1	-11	2.3	i	·
N#Cc1ccc(S(=O)(=O)NC(=O)[C@H]2O[C@@H](n3ccc(=O)[nH]c3=O)[C@H](O)[C@@H]2O)cc1	25	24	1.8	i	·
Cc1noc(C)c1S(=O)(=O)N(C)C[C@@H]1Oc2ccc(NC(=O)Nc3ccc(C(F)(F)F)cc3)cc2CC(=O)N([C@H](C)CO)C[C@H]1C	-3	0	0.8	i	·
COc1ccc(S(=O)(=O)N2CC[C@@H]3[C@H]2c2cc(-c4ccccc4F)ccc2N(C)[C@H]3CO)cc1	2	3	-3.4	i	·
Cc1noc(C)c1S(=O)(=O)N(C)C[C@H]1Oc2ccc(NC(=O)Cc3ccccc3)cc2CC(=O)N([C@@H](C)CO)C[C@H]1C	-1	4	-0.9	i	·
CN(c1ccc(NC(=O)CCc2c[nH]c3ccccc23)cc1)c1ccccn1	-24	-31	1.5	i	·
Cc1ccccc1S(=O)(=O)N1CC[C@@H]2[C@H]1c1cc(-c3cccc(F)c3)ccc1N(C)[C@H]2CO	6	20	-1.9	i	·
C[C@@H]1CN([C@@H](C)CO)S(=O)(=O)c2ccc(-c3ccccc3)cc2O[C@@H]1CN(C)Cc1cccnc1	-7	-18	5.7	i	·
O=C(C1CCOCC1)N1CC(=O)N2[C@@H](CO)[C@@H](c3ccc(Br)cc3)[C@@H]2C1	4	-5	5.0	·	-1.0
COc1ccc(NC(=O)N(C)C[C@H]2OCCCC[C@H](C)Oc3ccc(NS(=O)(=O)c4ccc(C)cc4)cc3C(=O)N([C@@H](C)CO)C[C@@H]2C)cc1	5	-8	-1.7	·	-3.0
Cc1ccc(-c2ccccc2[C@@H]2[C@@H](C#N)N(C(=O)NC3CCCC3)[C@H]2CO)cc1	-5	-58	15	·	-1.5
COCC(=O)N1CC(=O)N2[C@H](CO)[C@H](c3ccc(-c4cccnc4)cc3)[C@@H]2C1	2	13	-2.3	·	-5.0
COc1ccc(CN2C[C@H](C)[C@@H](OC)CN(C)C(=O)c3ccc(NC(=O)c4nc5ccccc5s4)cc3OC[C@H]2C)cc1	2	2	-0.5	·	3.4
(listing goes on)
SMILES	Ecoli rRNA inh	Ecoli rRNA inh OD600	Ecoli rRNA inh RFP	FGF22 binding	MLL AF4-AF9 inh
O=C1CNC[C@@H]2[C@@H](c3ccc(-c4ccccc4F)cc3)[C@@H](CO)N12	-1	0	0.4	·	-2.1
O=C(NCC(F)(F)F)[C@@H]1[C@@H](CO)[C@@H]2Cn3c(cccc3=O)[C@@H]2N1CCC(F)(F)F	1	9	-2.0	·	-4.1
O=C(c1ccccn1)N1CC(=O)N2[C@@H](CO)[C@H](c3ccc(C#Cc4ccccc4)cc3)[C@@H]2C1	2	-12	0.4	·	-3.5
Cc1ccc(S(=O)(=O)N(C)C[C@H]2OCCCC[C@@H](C)Oc3ccc(NC(=O)CCC(F)(F)F)cc3C(=O)N([C@H](C)CO)C[C@H]2C)cc1	2	3	2.5	·	0.4
COc1ccc2c3c([nH]c2c1)[C@@H](CO)N(CC1CCCCC1)CC31CN(C(=O)C2CCOCC2)C1	-1	-2	2.1	·	-6.6
C/C=C/c1ccc(C2[C@@H]3CN(S(=O)(=O)c4ccccc4C)C[C@H]2N3)cc1 (stereo partly specified)	-20&-15	-57&-41	3.4&-4.1	·	2.0
CC(=O)N1[C@@H]2Cn3c(ccc(C4=CCCC4)c3=O)[C@H]1[C@@H](C(=O)NC1CCCC1)[C@@H]2CO	-1	-7	0.3	·	-1.1
CCS(=O)(=O)N1CC2(C1)[C@H](c1ccccc1)[C@@H](CO)N2C(=O)C1CCCC1	1	3	-1.4	·	-2.5
CCS(=O)(=O)N1CC2(C1)CN(S(=O)(=O)c1ccccc1)[C@H](CO)c1c2c2ccc(OC)cc2n1C	-8	-18	-1.9	·	-0.8
COc1ccc(S(=O)(=O)Nc2ccc3c(c2)C(=O)N(C)C[C@H](OC)[C@H](C)CN[C@H](C)CO3)cc1	3	7	-1.7	·	0.1
O=C(Nc1cc(F)ccc1F)N1CC(=O)N2[C@@H](CO)[C@@H](c3ccc(C#CC4CCCC4)cc3)[C@@H]2C1	-10	-31	11	·	0.3
C[C@@H]1CN([C@H](C)CO)C(=O)Cc2cc(NS(=O)(=O)c3ccc(F)cc3)ccc2O[C@@H]1CN(C)C	2	8	-0.5	·	2.1
CN1c2ccc(Br)cc2[C@@H]2[C@@H](CCN2C(=O)C2CCC2)[C@H]1CO	1	8	-3.7	·	-8.9
C/C=C/c1ccc([C@H]2[C@@H](CO)N(C(=O)C3CC3)[C@@H]2CNC(=O)NC(C)C)cc1	-1	7	-0.4	·	-2.6
Cc1ccccc1-c1ccc(C2[C@@H]3CN(C(=O)Cc4ccccc4)C[C@H]2N3)cc1 (stereo partly specified)	-55&-56	-79&-78	-10&-9.2	·	2.2&-0.4
O=C(C1CCCC1)N1CC[C@@H]2[C@H]1c1cc(C#Cc3ccc(F)cc3)ccc1N[C@@H]2CO	0	-1	13	·	-2.9
Cc1ccc(-c2ccc([C@@H]3[C@H]4CN(C(=O)Cc5ccccn5)CC(=O)N4[C@H]3CO)cc2)cc1	1	-1	0.5	·	-0.6
COCC(=O)N1CC2(C1)CN(Cc1nccs1)[C@H](CO)c1c2c2ccc(OC)cc2n1C	3	11	-1.6	·	-3.8
O=C(C1CCC1)N1C[C@@H]2N[C@H](C1)C2c1ccc(/C=C/c2ccccc2)cc1 (stereo partly specified)	-57&-52	-77&-74	-14&-8.8	·	16&18
O=C(C1CCOCC1)N1C[C@@H]2[C@H](c3ccccc31)[C@H](CO)N2Cc1ccccc1	5	-2	0.6	·	-4.3

From PubChem
